# NPYLR7 ag = mosquito NPYLR7 agonism; HEK293T NPYLR7/Galpha15, GCaMP6s calcium fluorescence; activation, % at 10 µM; 270,000 compounds, 0.15% hits; AID 1259423; in the data active = activation above about 40%;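 also: 0% = vehicle and 100% = reference agonist at the receptor; some compounds past the cut are filed as inactive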
# NPYLR7 ag max-min = further read-out of NPYLR7 ag, marked with its call; activation, %; measured here: Max-Min RFU normalised activation; some inactives read as strong as hits;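 span of the calcium signal over five minutes; 0% = vehicle and 100% = native peptide agonist; compound fluorescence can raise it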
# The depositor's hits bear a star; & = joins results of further samples. The list is partial, so the mix of outcomes need not match the whole.
# Values run as follows: NPYLR7 ag	NPYLR7 ag max-min
CCOCCOC(C)C(=O)NCc1ccsc1-n1cccc1 (stereo not given)
→ -0.7	-5.2
CC(C)Oc1ccc(C(O)=C2C(=O)C(=O)N(CCCN(C)C)C2c2ccc(F)cc2)cc1 (stereo not given)
→ 10.8	10.8
Cc1cc(C(=O)Nc2ccccc2C(=O)NCc2ccccn2)n[nH]1
→ 30.3	13.7
CCCOc1ccccc1N1C(=O)CC(N(O)c2ccccc2)C1=O (stereo not given)
→ -4.2	-9.6
Cc1noc(-c2ccco2)c1C(=O)N[C@@H]1CCCc2ccccc21
→ 0.4	8.8
O=C(Cc1ccc(F)cc1)Nc1c(-c2cccc(F)c2)nc2ccccn12
→ -6.6	-1.6
CC(C)c1ccc(SCCS(N)(=O)=O)cc1
→ -2.0	15.4
CC(C)Cc1cc(CN2CCN(Cc3ccc(F)c(F)c3)C(CCO)C2)[nH]n1 (stereo not given)
→ 3.6	-0.4
CN1C(=O)C2C(c3ccc([N+](=O)[O-])cc3)NN(C)C2C1=O (stereo not given)
→ -6.3	-13.8
CC(O)Cn1c(=O)c(=O)[nH]c2ccccc21 (stereo not given)
→ 21.3	12.8
CCOc1ccccc1N1CCN(C(=O)c2cc(OC)cc(OC)c2)C(C)C1=O (stereo not given)
→ 22.1	27.9
C=C(Cl)CNc1cc(C(=O)N2CCOCC2)c2ccccc2n1
→ 3.6	-1.1
COc1ccc(C(=O)N(C/C(C)=C\c2ccccc2)CC2CCNCC2)cc1
→ 14.3	3.9
CCOC(=O)CN1C(=O)CN(C(=O)CC2CCCC2)CCC(OC)c2ccccc21 (stereo not given)
→ 2.0	11.5
CCOC(=O)c1c(C)oc2c1c(C=Nc1nc3ccccc3s1)c(O)c1ccccc12
→ 0.8	-5.2
CCN(CC)c1ncccc1CNC(=O)C1CCOC1 (stereo not given)
→ 8.7	9.7
CN(Cc1ccccc1F)C(=O)CNC(=O)c1cccc(Cl)c1
→ -0.1	-1.6
Cc1noc(C2CCCN2C(=O)c2cccc(CC3CCNCC3)c2)n1 (stereo not given)
→ 1.6	0.2
CC(C)(C)c1cc(-c2nccn2Cc2ccc3c(c2)OCO3)n[nH]1
→ 7.3	0.3
CCCCN(CC)c1nc(-c2ccc(OCC)cc2)nc2ccccc12
→ -0.6	0.6
Cc1cc(C)n(CCC(=O)N(C)CCc2noc(C(C)C)n2)c(=O)n1
→ -6.2	-9.7
Cc1cc(C)c(NC(=O)Cn2ccnc2)c(Cl)c1
→ -0.4	0.0
C=C1Cn2c(nc3sc4c(c3c2=O)CCCC4)S1
→ 6.2	4.2
CN(C)CCN(C(=O)c1ccc(Br)cc1)c1nc2ccc(Cl)cc2s1
→ -4.0	-7.4
COc1cccc(NC(=O)N2CCC(Cc3ccc(F)cc3)CC2)c1
→ 2.0	10.7
Cc1cc(N2CCC(CCCc3ccccc3)(C(=O)O)CC2)nc(N)n1
→ -0.4	12.3
O=C(O)c1coc(CN(CCc2c[nH]c3ccccc23)Cc2ccc3c(c2)OCO3)n1
→ 8.0	10.4
Clc1ccc(-c2noc(CSc3nnc(C4CC4)n3C3CC3)n2)cc1
→ 1.7	6.2
Cc1nc(CCCNC(=O)C2CCCCn3nnnc32)sc1C (stereo not given)
→ -6.9	-8.1
Oc1ccc(Br)cc1C=NNc1ccc(F)cc1F
→ 2.9	1.3
CCN1C[C@H]2COc3ccccc3[C@H]2N(C(=O)CC(C)C)CCC1=O
→ 21.3	28.1
COc1ccc(C(=O)N2C(C(=O)NC3CC3)COC23CCN(C(=O)Cc2ccccc2)CC3)cc1 (stereo not given)
→ -0.2	8.8
CSC(=S)N/N=C(\C)c1ccnnc1
→ 8.2	10.5
Cc1ccc(Cl)c(Oc2cc(N3CCN(C(=O)CCc4ccccc4)C(C)C3)ncn2)c1 (stereo not given)
→ -6.0	7.8
O=C(CCn1cc(Cl)cn1)Nc1cnc2n1CCCC2
→ -0.3	0.0
O=C(NCCCN1CCCCCC1)C(c1ccccc1)C1CCCCC1 (stereo not given)
→ -14.7	-19.8
C=CCNc1nc(OC(C(F)(F)F)C(F)(F)F)nc(N2CCCCC2)n1
→ -3.0	-10.8
CC(=NNS(=O)(=O)c1ccc(Br)cc1)c1ccc(Cl)s1
→ 13.0	10.0
CCc1ccc(C(O)c2ncc(-c3ccccc3F)[nH]2)cc1 (stereo not given)
→ 0.2	-1.5
CCc1nc2n(n1)C(=O)C(C(c1ccc(OC)cc1)N1CCN(c3ccccc3)CC1)S2 (stereo not given)
→ -4.3	-10.1
O=C(c1nc2ccccc2s1)N(CCn1cccn1)c1nc2ccccc2s1
→ -10.3	-12.1
Cc1cc(C)c2nc(N(CCn3cccn3)C(=O)c3ccc4c(c3)OCCO4)sc2c1
→ -20.1	-24.0
C=CCn1c(-c2cc3c(s2)CCC(CC)C3)n[nH]c1=S (stereo not given)
→ -1.9	0.1
Cc1cccc(-n2c(SCc3ccc(C(=O)O)cc3)nnc2-c2ccccc2Cl)c1
→ -7.8	-13.3
CCCN(Cc1nccn1C)C(=O)c1oc(CC)nc1C
→ -1.3	0.8
COc1cccc(-c2ccccc2NC(=O)C2CCN(CCC(C)c3ccc(C)o3)CC2)c1 (stereo not given)
→ 17.2&-5.0	11.6&-5.8
O=C(CNC(=O)CCc1ccccc1)N=Nc1c(O)[nH]c2ccc([N+](=O)[O-])cc12
→ 0.8	-4.9
CC(C)(C)OC(=O)N1CCN(CC(=O)O)C(=O)C1
→ 11.7	7.0
CN(C)c1ccc(/C=C/C=C2/SC(N)=NC2=O)cc1
→ 6.1	0.1
CCCn1c(C(=O)Nc2ccccc2C(N)=O)cc2c(=O)n(C)c(=O)n(C)c21
→ -0.6	-1.6

# Later entries:
# Values run as follows: NPYLR7 ag	NPYLR7 ag max-min
CC(OC(=O)c1ccc(N2CCCCCC2)nc1)c1nc(C2CC2)no1 (stereo not given)
→ 0.7	967.4
COc1ccc(Cl)cc1S(=O)(=O)Nc1cccc(Cl)c1Cl
→ -10.3	-11.8
CCOc1ccc(-c2cc(C(=O)N/N=C\c3ccco3)[nH]n2)cc1OC
→ 0.5	-4.1
O=C(Cn1nc(-c2ccco2)c2sc(N3CCOCC3)nc2c1=O)OCc1ccccc1
→ -0.8	-4.9
Cc1c(C)n2c3c(=O)n(CC(N)=O)c(=O)n(C)c3nc2n1Cc1ccco1
→ 12.4	4.2
NC(=O)C1CCCN1Cc1cc(Cl)c2c(c1)OCCCO2 (stereo not given)
→ -3.9	-2.9
Cc1nc2ccc(CC(=O)Nc3c(C)cnn3C(C)C3CC3)cc2[nH]1 (stereo not given)
→ 2.2	-2.5
CNC(=O)NC(=O)CSc1nnc(Nc2ccc(OC)cc2)s1
→ -5.9	-11.0
CC(C)=C1C2C=CC1C1C(=O)N(c3ccc(C#N)cc3)C(=O)C21 (stereo not given)
→ 1.0	-8.2
CCc1ccc(NC(=O)C(=O)N2CCCN(C(=O)OC)CC2)cc1
→ -0.2	19.1
CCn1c(SCC(=O)NN=Cc2ccccc2C(=O)O)nnc1-c1ccccc1
→ -5.9	-12.0
O=S(=O)(Nc1ccc(Cl)c(C(F)(F)F)c1)c1cccc2cccnc12
→ 0.3	6.4
Cc1c(C(C)NC(=O)Nc2cccc(COC3CCCCC3)c2)cnn1C (stereo not given)
→ 1.8	0.4
COc1ccc(CC(=O)NC(C)c2nnc(SCc3ccccc3C)n2-c2ccc([N+](=O)[O-])cc2)cc1 (stereo not given)
→ 21.6	24.6
C=C(C)CN(CC)C(=O)c1ccccc1Cn1cccn1
→ 13.2	9.5
CN(C)c1ccc(C(=O)NNC(=O)c2cccc(S(C)(=O)=O)c2)cn1
→ 12.3	7.8
Cc1cc(C(=O)N2CCCN(Cc3cc(=O)c(OCc4ccc(C(C)(C)C)cc4)co3)CC2)n(C(C)(C)C)n1
→ 12.0	2.4
CCOC(=O)c1[nH]cc2c1CS(=O)(=O)C2
→ 4.4	1.6
Cc1occc1-c1nnc(SCC(=O)N2CCNC2=O)n1C
→ 10.4	11.0
O=C(O)c1cc(-c2cccc3c2OCC3)cc(S(=O)(=O)N2CCSCC2)c1
→ 6.5	8.1
COc1cccc(CC(C(=O)NC2C3CCCCC32)n2nnnc2C)c1 (stereo not given)
→ 3.0	2.5
O=C(Cc1c(F)cccc1Cl)N(c1ccc(Cl)cc1)c1nc2ccc(Cl)cc2s1
→ -10.5	-14.5
COCCN(CCC#N)Cn1cc(Cl)cn1
→ -0.2	-8.3
Cc1ccc(C)c(OCC(O)Cn2cnc3sccc3c2=O)c1 (stereo not given)
→ -1.2	-0.7
CN(Cc1ccc(Cl)cc1)C(=O)NCc1cccnc1
→ 9.4	6.8
COc1ccc(C)cc1NS(=O)(=O)c1cccc(C(C)O)c1 (stereo not given)
→ -2.2	-3.5
CCN(CC)CCNC(=O)c1cnc(C(C)(C)C)s1
→ 1.9	4.6
C/C=C/COC(=O)C1=C(C)NC(=O)NC1c1ccc(OC)cc1 (stereo not given)
→ -4.1	-5.4
COc1cc(-c2cnn3c(C)c(C(=O)NCCCOC(C)C)cnc23)cc(OC)c1OC
→ 5.4	-2.8
CCCCN(C)c1nc(SC)ncc1CNCc1ccc(C)o1
→ 0.0	-2.0

# Continued (six carried over from the part before).
# Values run as follows: NPYLR7 ag	NPYLR7 ag max-min
CN(Cc1ccc(Cl)cc1)C(=O)NCc1cccnc1
→ 9.4	6.8
COc1ccc(C)cc1NS(=O)(=O)c1cccc(C(C)O)c1 (stereo not given)
→ -2.2	-3.5
CCN(CC)CCNC(=O)c1cnc(C(C)(C)C)s1
→ 1.9	4.6
C/C=C/COC(=O)C1=C(C)NC(=O)NC1c1ccc(OC)cc1 (stereo not given)
→ -4.1	-5.4
COc1cc(-c2cnn3c(C)c(C(=O)NCCCOC(C)C)cnc23)cc(OC)c1OC
→ 5.4	-2.8
CCCCN(C)c1nc(SC)ncc1CNCc1ccc(C)o1
→ 0.0	-2.0
Cc1ccccc1OCCn1c(C)c(/C=N\n2cnnc2)c2ccccc21
→ 3.3	-0.6
c1ccc(SCc2cn3cccnc3n2)cc1
→ 4.3&0.8	8.7&-1.1
COc1ccc(NC(=O)NCCS(=O)(=O)c2c(C)n(C)c3ccccc23)c(OC)c1
→ -1.8	8.9
CCn1ccnc1CN(C)Cc1nc(-c2ccccc2)no1
→ -1.6	-3.4
COc1cccc(C)c1NC(=O)c1sc2ccccc2c1Cl
→ 21.7	31.4
CCN(CCO)Cc1csc2ccc(C(C)(C)C)cc12
→ 5.6	4.1
O=C(Cn1ccc(=O)[nH]c1=O)Nc1ccccc1SCc1ccccc1
→ 10.0	5.3
CNc1nnc(Sc2ncnc3ccsc23)s1
→ -3.2	-3.9
CCCc1cc(C(=O)OCC)nn1C1CCN(C(=O)CCC2CCCC2)CC1
→ 26.0	13.6
O=C(CNC(=O)c1ccc(F)cc1)N=Nc1c(O)[nH]c2ccccc12
→ -6.5	-11.0
C=CC(=O)N1CCN(c2nc3cc(C)c(C)cc3nc2C(=O)OCC)CC1
→ 6.8	8.1
CC(C)(C(=O)NS(=O)(=O)N1CCN(Cc2ccccc2)CC1)c1ccc2c(c1)OCCO2
→ 2.2	9.5
Cc1ccc(Cl)cc1-n1c(SCc2nc(C(=O)N[C@H]3CCCCNC3=O)cs2)nnc1-c1ccco1
→ 38.6	32.8
O=C(Nc1ccccc1CN1CCSCC1)N1CCSCC1
→ -0.1	-1.6
C=CCCC1(C)N2CC3([N+](=O)[O-])CN1CC([N+](=O)[O-])(C2)C3(C)C (stereo not given)
→ 6.3	6.5
Cc1ccc(CCNC(=O)c2ccc(-n3nc(-c4cccc(C)c4)cc3N)cc2)cc1
→ -7.1	-13.6
CC(C)N(C)c1nc(-c2ccccc2)nc2c1CN(C(=O)c1ccc(Br)cc1)CC2
→ 0.6	8.7
FC(F)(F)c1ccc(-c2nc(CSCCc3ccccc3)cs2)cc1
→ 4.1	3.3
Cc1[nH][nH]c(=O)c1CC(=O)N1CCOC2(CNCCOC2)C1 (stereo not given)
→ 3.9	3.1
CCOC(=O)C1CCCN(C(=O)c2cc(-c3ccc(F)cc3)n(-c3cccc(C)c3)c2C)C1 (stereo not given)
→ -10.9	0.4
CCCCCOc1ccc(C(=O)NCC(C)(C)CN(C)C)cc1OCCCCC
→ 1.5	-3.9
CC(=O)N1CCN(c2ccc([N+](=O)[O-])c(NC(=O)CN3CCOCC3)c2)CC1
→ -4.6	-6.8
CCOC(=O)c1cccc(S(=O)(=O)NC(C)c2cnn(C)c2C)c1 (stereo not given)
→ -7.1	-7.5
Cc1nc2sc(C)c(C)n2c(=O)c1NC(=O)c1ccc2ccccc2n1
→ 37.8	35.1
Cc1ccc2[nH]c(C(=O)O)c(CN3CC[C@@H]4CC[C@H](C3)N4C)c2c1
→ -2.0	-4.4
COc1cccc(CN2CCC3(CC2)NC(=O)c2c(Cl)cccc2N3)c1OC
→ 0.4	9.3
CCOC(=O)c1ccc(NC(=O)N(CC(=O)N(Cc2ccc3c(c2)OCO3)Cc2cccs2)C2CC2)cc1
→ -1.1	8.3
Cc1ccc(NC(=O)NCCn2nc(-c3ccccc3)n(C)c2=O)cc1C
→ 5.7	3.7
O=C(c1cc(F)c(F)c(F)c1F)N1CCOC(COCc2cccc(C(F)(F)F)c2)C1 (stereo not given)
→ 22.7	19.4
CC(C)c1ccccc1N1C(=O)CSC1c1cccc(NC(=O)C2CC2)c1 (stereo not given)
→ -2.6	7.6
Cc1cc(Br)cc(C)c1OCCn1cnc2ccccc2c1=O
→ -5.6	-1.1
O=C(NCCc1csc2ccccc12)N1CCC2(CCOCC2)C1
→ 14.6	7.6

# An excerpt from above in order of molar mass, low to high.
# Values run as follows: NPYLR7 ag	NPYLR7 ag max-min
Cc1nc2sc(C)c(C)n2c(=O)c1NC(=O)c1ccc2ccccc2n1
→ 37.8	35.1
Cc1cc(Br)cc(C)c1OCCn1cnc2ccccc2c1=O
→ -5.6	-1.1
CC(=O)N1CCN(c2ccc([N+](=O)[O-])c(NC(=O)CN3CCOCC3)c2)CC1
→ -4.6	-6.8

# Source: PubChem BioAssay
